Mtb hypoxia inh: reduces hypoxia-regulated biosensor signal in M. tuberculosis | fluorescence inhibition, % (test concentration not listed) | 300,000 compounds, 0.1% hits | AID 1159583 | M. tuberculosis hypoxia-regulated fluorescent reporter, fluorescence;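 active = 35 to 45% if threefold the growth effect, above 45% if 1.5-fold the growth effect; inactive = the rest, general growth blockers included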;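 note: wells of about 50 µL received 100 nL stock; 0% = vehicle wells and 100% = reference inhibitor wells; whole bacteria with a GFP reporter of the hypoxia response; strong numbers were not always called active; many hits fall short of the cut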
Bead autofluor: flagged as autofluorescent in microsphere protease counterscreen; compound autofluorescence counterscreen, microsphere flow cytometry; stronger effect = higher value; fluorescence intensity (test concentration not listed); 360,000 compounds, 3.1% hits; AID 624483;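 active = at least 3 SD above the mean of all compounds, about 16000 in these data; inconclusive = too few beads counted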;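 note: 100 nL of 1 mM stock went into each well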
PrP UTR inh: inhibition of PrP 5' UTR reporter expression; cell-based PrP 5' UTR mRNA reporter, plate reader; 340,000 compounds, 0.35% hits; inhibition, % (test concentration not listed);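 active = every replicate at 50% or more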;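 note: 0 = median of the neutral control wells; tested in H4 reporter cells; numbers are from one replicate; inactives centre near -14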
BJeLR viability: kills HRASV12-expressing BJeLR cells; BJeLR (HRASV12) viability, CellTiter-Glo ATP luminescence, 48 h; reference of the scale not given here; 300,000 compounds, 0.17% hits; inhibition, % (concentration not given with the values); AID 1554;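 active = replicate mean above 50%; inconclusive = above 50% but judged a plate artefact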;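 note: 50 nL library stock added to about 25 µL; numbers are from one replicate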
Sa ugtP lethal: kills S. aureus RN4220 lacking UgtP | S. aureus RN4220 ugtP deletion, OD600 growth, 16 h; some inactives read as strong as hits | growth inhibition, % (no concentration beside the values) | 330,000 compounds, 0.54% hits | AID 1259309;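 active = z-score under -3 and OD600 up to 0.15 on both plates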;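 note: plate controls were untreated wells for no effect and antibiotic for full effect; wells of about 80 µL received 100 nL stock; the first replicate is given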
Sa RN4220 lethal: kills Staphylococcus aureus RN4220; 330,000 compounds, 0.33% hits; inhibition, % (concentration not given with the values); S. aureus RN4220 growth, OD600, 16 h; AID 1259311;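 active = z-score of -3 or lower and OD600 up to 0.18 on both plates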;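 note: plate controls were untreated cells for no effect and reference antibiotic for full effect; stock transfer was 100 nL into about 80 µL; one replicate is shown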
Mtb hypoxia inh growth: recorded beside Mtb hypoxia inh, whose call it bears; growth inhibition, %; measured here: M. tuberculosis growth (absorbance);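 0% = vehicle and 100% = reference antibiotic; read after six days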
* marks the source's active call; other numbers are inactive results; ? = inconclusive; . = no result given.

SMILES	Mtb hypoxia inh	Mtb hypoxia inh growth	Bead autofluor	PrP UTR inh	BJeLR viability	Sa ugtP lethal	Sa RN4220 lethal
CC(C)C(NC(=O)c1c(F)cccc1F)C(=O)N1CCN(S(=O)(=O)/C=C/c2ccccc2)CC1 (centres undefined)	-5	0	5741	-11	.	-2	-1.6
Cc1ccc(-c2nc(CS(=O)CC(=O)NCCC(C)C)c(C)o2)cc1 (centres undefined)	3	11	3954	-2	2	-12	-17
Cn1cc(-c2nnnn2-c2ccc(Cl)cc2)c(=O)c2ccccc21	19	18	3733	-23	1	2	3.2
Cc1occc1C(=O)N/N=C/C1=C(N2CCOCC2)C(=C\c2ccc(Cl)cc2)/CC1	.	.	2457	-8	-7	.	.
Cc1c(C(=O)N2CCN(c3ccc([N+](=O)[O-])cc3)CC2)sc2ncn(CC(=O)N3CCOCC3)c(=O)c12	-11	2	3686	10	-7	2	-6.3
O=C(Cn1ncc2c3ccccc3n(Cc3cccc(Cl)c3)c2c1=O)NCC1CCCO1 (centres undefined)	.	.	5891	-15	-4	.	.
Cc1cc(C)n2nc(C(=O)NN=Cc3cccs3)nc2n1	-1	9	.	.	.	-13	-1.8
N#Cc1c(/N=C/C2C(=O)NC(=S)NC2=O)sc2c1CCCC2	.	.	5110	-3	-4	.	.
O=C(CNc1cccc([N+](=O)[O-])c1)NCCCc1ccccc1	1	-1	6581	-19	-6	-2	3.8
CC(C)(C)NC(=O)c1cc(NC(=O)c2cccs2)cc(NC(=O)c2cccs2)c1	-2	-13	3203	-6	8	5	4.8
CCOC(=O)[C@H](O)[C@@H](O)c1cccc([C@H](O)[C@@H](O)C(=O)OCC)c1	.	.	3495	-23	-5	.	.
Cc1ccc(C23CC4CC(CC(NC(=O)N5CCN(C)CC5)(C4)C2)C3)cc1	.	.	4608	-21	4	10	1.9

For convenience, six of the compounds above:
SMILES	Mtb hypoxia inh	Mtb hypoxia inh growth	Bead autofluor	PrP UTR inh	BJeLR viability	Sa ugtP lethal	Sa RN4220 lethal
CC(C)C(NC(=O)c1c(F)cccc1F)C(=O)N1CCN(S(=O)(=O)/C=C/c2ccccc2)CC1 (centres undefined)	-5	0	5741	-11	.	-2	-1.6
Cc1ccc(-c2nc(CS(=O)CC(=O)NCCC(C)C)c(C)o2)cc1 (centres undefined)	3	11	3954	-2	2	-12	-17
Cn1cc(-c2nnnn2-c2ccc(Cl)cc2)c(=O)c2ccccc21	19	18	3733	-23	1	2	3.2
Cc1occc1C(=O)N/N=C/C1=C(N2CCOCC2)C(=C\c2ccc(Cl)cc2)/CC1	.	.	2457	-8	-7	.	.
Cc1c(C(=O)N2CCN(c3ccc([N+](=O)[O-])cc3)CC2)sc2ncn(CC(=O)N3CCOCC3)c(=O)c12	-11	2	3686	10	-7	2	-6.3
O=C(Cn1ncc2c3ccccc3n(Cc3cccc(Cl)c3)c2c1=O)NCC1CCCO1 (centres undefined)	.	.	5891	-15	-4	.	.

(listing goes on)
SMILES	Mtb hypoxia inh	Mtb hypoxia inh growth	Bead autofluor	PrP UTR inh	BJeLR viability	Sa ugtP lethal	Sa RN4220 lethal
CN1CCN(CC(=O)Nc2c(C#N)cnn2-c2ccccc2)CC1	7	6	3958	.	-8	2	2.4
N/C(=N\N=C\c1ccc(O)cc1)c1nonc1N	.	.	4370	-103	8	.	.
Cc1ccccc1OCC(=O)NCCNC(=O)c1ccncc1	-10	-9	3440	-5	1	-1	0.5
CN(C)c1ccc(NC(=O)c2cccc(C(=O)Nc3ccc(N(C)C)cc3)n2)cc1	.	.	1168	-79	7	5	6.6
O=C(Cc1cccc(C(F)(F)F)c1)NCc1cccc(Cl)c1	0	12	2660	-19	-1	0	-1.2
O=C(N/N=C/c1c[nH]c2ccccc12)c1ccccc1Cl	.	.	3795	-24	-2	.	.
COc1cc(CN2CCC(n3nccc3NC(=O)C3CCOC3)CC2)ccc1F (centres undefined)	10	-26	.	-30	0	4	-0.1
COc1ccc(-c2[nH]ncc2CN2CCCO2)cc1F	-8	-2	3706	-28	24	8	4.7
COc1ccc(C(=O)O/N=C(\N)c2ccccc2)cc1OC	17	8	3157	.	-2	2	4.8
C[C@H](NC(=O)[C@@H]1CSC2c3ccccc3C(=O)N21)C(=O)NCCc1ccccc1 (some centres undefined)	.	.	5760	-20	6	.	.
Cn1c(O)c(N=NC(=O)c2cccc(S(=O)(=O)N3CCCCC3)c2)c2ccccc21	12	3	2147	-5	1	-8	4.9
CC(=O)c1ccc(N(CC(=O)NCC2CCCO2)C(=O)CCC(=O)Nc2cc(C)on2)cc1 (centres undefined)	-5	-5	4493	-7	-4	-1	-3.8
Cc1cc(C)n2nc(-c3ccc(Cl)cc3)cc2n1	16	8	5754	-66	7	4	1.2
CCN(CC)CCCNC(=S)N(Cc1cccnc1)Cc1cc2cc(C)cc(C)c2[nH]c1=O	16	5	3564	-15	6	-2	6.9
CC(=O)Nc1ccc(C(=O)OCCc2ccccc2)cc1	-4	-3	5999	-30	-8	5	2.7
CC(=O)n1cc([C@H]2C=C(C(=O)N3CCOCC3)O[C@@H](OCCCCO)C2)c2ccccc21	.	.	2940	-18	-2	.	.
COc1ccc(NC(=S)Nc2ccc(Oc3ccccc3)cc2)cc1	.	.	2495	-4	1	-2	-8.2
CCCC[N+]1(C)[C@@H]2CC(OC(=O)[C@H](CO)c3ccccc3)C[C@H]1[C@@H]1O[C@@H]12 (some centres undefined)	.	.	5885	-19	6	.	.
CC(Cc1ccccc1)C(=O)N(C)Cc1ccccc1 (centres undefined)	15	-4	2739	-5	1	8	5.3
COc1cc(/C=C(\C#N)c2[nH]nc(N)c2C#N)cc(OC)c1O	-3	10	4285	-7	-5	-2	0.8
CCC(=O)c1c[nH]c(C(=O)NCC2CCCO2)c1 (centres undefined)	.	.	2292	11	11	1	0.0
CC(=O)c1cc2c(cc1NS(=O)(=O)c1ccccc1F)OCO2	1	18	4164	-26	2	-3	-1.2
C[C@@H]1CN(C(=O)c2nc3ccc(Cl)cn3c2CN[C@H]2CCCCNC2=O)C[C@H](C)O1	6	9	1931	-14	8	3	1.4
O=C(Nc1cccc(S(=O)(=O)N2CCOCC2)c1)c1ccco1	1	8	10020	-6	-14	-1	1.8
Cc1cccc2c(=O)c(-c3ccc(Cl)cc3)c(NC(=O)c3ccco3)oc12	-6	-6	5650	-17	7	-5	-1.0
CC1(C)C(C=C(Cl)Cl)C1C(=O)N(Cc1ccc(Cl)cc1)C1CCS(=O)(=O)C1 (centres undefined)	3	8	9543	-4	-13	-13	2.0
O=C(c1cccs1)n1cc(C(=S)N2CCOCC2)c2ccccc21	12	7	20879*	-22	2	-13	8.8
O=C(NCCC1=CCCCC1)c1ccc(Cl)c(S(=O)(=O)N2CCOCC2)c1	1	4	15742	-7	7	-8	-3.5
CC1C=Cc2ccccc2N1C(=O)c1ccccc1 (centres undefined)	16	8	5610	-16	4	7	8.5
CC1CN(N=Cc2ccc([N+](=O)[O-])o2)C(=N)O1 (centres undefined)	-2	10	4403	-1	.	67	25
CCOc1ccc2c(c1)-c1c(ssc1=S)C(C)(C)N2C(=O)CSC1=NCCS1	-5	-3	9088	-16	-9	7	-14
Cc1ncc(S(=O)(=O)c2ccc(Cl)cc2)c(N)n1	-11	-10	3915	-18	-2	5	0.6
CC(=O)Nc1ccc(S(=O)(=O)NCCC(=O)N2CCN(C(c3ccccc3)c3ccccc3)CC2)cc1	8	-9	?	-28	11	11	-1.9
CCCc1nc(NC(C)=O)c(C#N)c(-c2ccco2)c1CC	9	3	10704	-24	-2	-8	11
CC(CC1CC(C)OC1=O)=NNC(N)=S (centres undefined)	12	5	.	.	.	-4	4.2
O=C(/C=C/c1ccc(Cl)cc1)Nc1ccc(S(=O)(=O)Nc2ncccn2)cc1	7	7	4924	-28	0	3	2.6
COC(=O)c1cc(=O)n(-c2ccccc2)c(=Nc2ccccc2)s1	17	26	4315	9	-3	2	-5.6
O=S(=O)(Nc1cccc(S(=O)(=O)N2CCOCC2)c1)c1ccc(Cl)s1	-1	7	2110	-6	5	-3	10
CCOC(=O)c1ccc(NC(=O)N2C3CCCC2CC(NC(C)=O)C3)cc1 (centres undefined)	18	11	3531	-14	-4	8	5.0
N#Cc1c(-c2ccccc2)nc(N2CCOCC2)[nH]c1=O	.	.	4490	-1	1	1	3.4
O=C(CCN=C1NS(=O)(=O)c2ccccc21)OCC(=O)c1ccc(F)c(F)c1	-1	7	.	-7	-1	3	1.1
CNc1ccc(Br)cc(C(=O)/C=C/c2cccc(OC)c2OC)c1=O	10	4	13855	-24	-1	5	1.2
COc1ccc(/C(N)=N/OC(=O)Cc2ccccc2OC)cc1	6	15	21398*	-21	0	7	2.8
CCc1ccc(/C(C)=N/Nc2cc(Cl)nc(C)n2)cc1	.	.	10894	-7	5	.	.
Cc1ccc(C)c(-c2cc(C(=O)Nc3nccs3)c3ccccc3n2)c1	5	-2	24181*	-10	-12	2	-2.4
O=C(NC1CCCCC1)c1ccc2[nH]c(=O)c(=O)[nH]c2c1	7	-1	5760	0	-3	-3	0.3
CC(C)n1c(O)c(/C=C2\C=NN=C2c2ccccc2)sc1=S	.	.	5847	-23	-13	.	.
CCOCCCNC(=O)c1cc2c(s1)-c1ccccc1SC2	0	0	3580	-19	5	0	3.3
O=C(OCC(=O)c1cccs1)C1=COCCO1	-4	9	.	-39	-3	7	12
O=C(Nc1ccncc1)OCc1ccccc1	3	0	4636	7	2	-2	3.9
N#CCN1CCN(CCC(=O)Nc2ccc(OCc3ccccc3)cc2)CC1	11	13	2379	-36	-5	2	3.2
Nc1nonc1NC(=O)NN=C1CCCCC1	6	9	1950	3	-3	5	6.3
N#Cc1c(NC(=O)COC(=O)c2ccc(F)cc2)sc2c1CCC2	-1	-2	10912	-4	3	-4	3.0
CC1(C2CC(C(F)(F)F)n3nc(C(=O)O)cc3N2)CC1 (centres undefined)	15	6	5010	-19	2	1	0.2
COc1ccccc1CNC(=O)C1(NC(=O)Nc2ccc(C)cc2)CCCCC1	4	6	3232	-14	-1	12	-7.3
CN(C)c1ccc(C=Nc2ccccc2C(N)=O)cc1	-4	-12	9259	3	.	-3	0.6
O=C(c1ccco1)N1CCN(Cc2nnc(-c3cccc(Cl)c3)o2)CC1	6	6	3943	-13	1	2	2.6
CC(C)c1ccc(NC(=O)CSc2n[nH]c(=O)n2-c2ccc3c(c2)OCCO3)cc1	5	12	.	.	1	7	3.3
Cc1ccc2nc(SCc3nc4c(cnn4-c4ccccc4)c(=O)[nH]3)[nH]c2c1	.	.	2809	-17	7	.	.
COc1ccc(-n2c(SCC(=O)Nc3cc(C)on3)nc3c([nH]c4ccccc43)c2=O)cc1OC	10	1	6547	-18	-6	0	9.6

The list goes on:
SMILES	Mtb hypoxia inh	Mtb hypoxia inh growth	Bead autofluor	PrP UTR inh	BJeLR viability	Sa ugtP lethal	Sa RN4220 lethal
Cc1cccc(NC(=O)c2ccoc2C)n1	.	.	2376	-33	3	1	3.8
CCCC(=O)Nc1ccc(C(=O)NCC2CCCO2)cc1 (centres undefined)	8	9	24245*	-21	-6	-3	-0.9
Cc1ccc(N(CC(=O)NC(C)(C)C)C(=O)CNC(=O)c2cccs2)c(C)c1	-5	-2	3735	-20	3	-3	3.1
CN(C)CCNc1cnn(-c2ccccc2)c(=O)c1Cl	4	10	4780	-22	6	9	9.3
Cc1ccc(NC(=O)Cn2cnc3c(NCc4ccccc4)ncnc32)cc1C	-2	4	3563	-28	.	-1	2.0
CC(NS(=O)(=O)OCC(Cl)(Cl)Cl)C1CC1c1ccccc1 (centres undefined)	.	.	.	.	.	6	8.4
COc1cc(C2C(C#N)=C(N)OC3=C2C(=O)CCC3)cc(OC)c1OC(=O)N1CCOCC1 (centres undefined)	.	.	4675	-11	2	1	2.6
CO/N=C/c1ccc(OC)c(Oc2nc(OC)cc(OC)n2)c1	.	.	2429	-1	-3	.	.
CSc1ncc(C(=O)NCCCc2ccccc2)c(C)n1	7	3	3110	-19	-1	17	2.2
CCN(CC)S(=O)(=O)c1ccc(N2CCOCC2)c(NC(=O)CCC2CCCCC2)c1	.	.	10705	-3	-4	.	.
COc1ccc(O)c(/C=C(\C#N)C(=O)Nc2ccccn2)c1	8	-7	3211	-39	8	5	0.9
Cc1cc(C)n(CCCO)c(=O)c1C#N	-2	-2	7798	-12	3	2	1.1
Cc1ccc(Cn2nnc3c(=O)n(CC(=O)N4CCN(c5ccccc5)CC4)cnc32)cc1	12	4	11374	-10	1	2	1.2
